Mtb MbtI inh – MbtI salicylate synthase inhibitors, primary screen, biochemical, fluorescence intensity. inhibition, %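 (about 17 µg/mL by stock and volumes)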. P9WFX0. purified MbtI enzyme, fluorescence intensity read-out. hit rate 0.89% among 100,000;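 active = above 50% in both replicates, above 80% if mildly self-fluorescent; inactive = the rest, strongly fluorescent compounds included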;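 note: 0% = mean of negative and 100% = mean of positive controls; one replicate is shown; some compounds called inactive have numbers as strong as hits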
PV pol inh – poliovirus RdRp elongation inhibitors, primary screen, biochemical, fluorescence polarization, total intensity | Genome polyprotein (Poliovirus type 1 (strain Mahoney)), P03300 | poliovirus polymerase elongation; stronger effect = lower value | % elongation, % (compound at 16.7 µg/mL) | hit rate 0.66% among 150,000; in the data active = % elongation below about 90%; note: some results filed as inactive read as strong as hits
Target sequence (P03300 1749-2209 limits assumed): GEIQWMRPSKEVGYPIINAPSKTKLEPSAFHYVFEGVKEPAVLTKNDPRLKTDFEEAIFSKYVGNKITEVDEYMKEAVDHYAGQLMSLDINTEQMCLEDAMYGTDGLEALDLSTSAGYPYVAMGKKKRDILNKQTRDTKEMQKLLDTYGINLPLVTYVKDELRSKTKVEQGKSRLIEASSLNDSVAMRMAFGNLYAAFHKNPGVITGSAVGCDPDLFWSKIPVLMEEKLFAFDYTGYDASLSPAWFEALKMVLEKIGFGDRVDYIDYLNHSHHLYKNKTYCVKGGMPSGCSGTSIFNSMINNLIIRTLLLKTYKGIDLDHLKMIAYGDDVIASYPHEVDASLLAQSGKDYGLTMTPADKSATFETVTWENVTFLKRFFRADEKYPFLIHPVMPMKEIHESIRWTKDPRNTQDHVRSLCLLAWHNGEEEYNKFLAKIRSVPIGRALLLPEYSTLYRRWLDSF
MenB inh – M. tuberculosis MenB inhibitors, primary screen, biochemical, absorbance. inhibition, %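 (about 12 µg/mL by stock and volumes)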. 1,4-dihydroxy-2-naphthoyl-CoA synthase (Mycobacterium tuberculosis (strain ATCC 25618 / …. MenB enzyme assay, absorbance read-out; some hits fall short of the stated cut. hit rate 0.43% among 100,000;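 active = mean of two replicates above 30%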;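 note: 0% = no compound and 100% = wells with inactive enzyme; the first replicate is given; strong numbers were not always called active; inactives centre near -10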
Target sequence (P9WNP5 whole entry, looked up): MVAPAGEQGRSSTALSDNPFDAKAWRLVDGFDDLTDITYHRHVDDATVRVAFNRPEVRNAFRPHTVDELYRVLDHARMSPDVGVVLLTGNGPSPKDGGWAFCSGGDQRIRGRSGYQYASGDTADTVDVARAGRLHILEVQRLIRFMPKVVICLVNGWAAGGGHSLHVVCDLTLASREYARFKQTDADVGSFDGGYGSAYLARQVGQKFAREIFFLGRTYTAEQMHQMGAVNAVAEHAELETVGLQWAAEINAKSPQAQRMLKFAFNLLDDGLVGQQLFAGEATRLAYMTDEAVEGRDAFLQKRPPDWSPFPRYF
PV pol inh intensity – second read-out of PV pol inh, no call of its own (marks repeat the call); % elongation; measured here: total intensity read-out; formula for this scale not given here;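 total fluorescence in place of polarization; lower means less elongation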
Starred values were filed as active, the others as inactive; & = joins results of further samples. Not a hit list. Share with any hit: about 1.7%.

What do the screens show for `Cc1cccc(C)c1N1CCN(S(=O)(=O)N2CCCCC2)CC1`?
Mtb MbtI inh: -13.9; PV pol inh: 102.0; MenB inh: -13.2; PV pol inh intensity: 103.0

How did Brc1ccc(Nc2ncnc3ccccc23)cc1 do in these assays?
Mtb MbtI inh: -17.9; PV pol inh: 112.0; MenB inh: 4.9; PV pol inh intensity: 117.0

How did Cc1cc(C(=O)N/N=C\c2ccccc2)n[nH]1 do in these assays?
Mtb MbtI inh: 25.2; PV pol inh: 98.0; MenB inh: -55.0; PV pol inh intensity: 100.0

How did O=C(Nc1cccc(Cl)c1)C1=CC(=O)N2CCN=C2S1 do in these assays?
Mtb MbtI inh: 37.5; PV pol inh: 100.0; MenB inh: 13.2; PV pol inh intensity: 102.0

How did COc1cc(SC)ccc1C(=O)NCC1CCCCC1 do in these assays?
Mtb MbtI inh: 7.8; MenB inh: -11.9

How did COc1ccc2c(CC(=O)OCc3cc(Cl)c4c(c3)OCCCO4)coc2c1 do in these assays?
Mtb MbtI inh: 17.1; PV pol inh: 99.0; MenB inh: -17.9; PV pol inh intensity: 113.0

Results for c1ccc2sc(NC3=NCN(Cc4ccc5c(c4)OCO5)CN3)nc2c1 ?
Mtb MbtI inh: -0.7; PV pol inh: 102.0; MenB inh: -5.6; PV pol inh intensity: 103.0

How did COc1ccccc1-c1nn2c(Cn3cnc4ccccc43)nnc2s1 do in these assays?
Mtb MbtI inh: inactive; PV pol inh: 97.0; MenB inh: -12.0; PV pol inh intensity: 98.0

Results for CN(C)c1ccc(CNC(=O)C(NS(=O)(=O)c2ccc3c(c2)CCC(=O)N3)c2ccccc2)cc1 (configuration not stated) ?
Mtb MbtI inh: 0.1; PV pol inh: 102.0; MenB inh: -22.3; PV pol inh intensity: 101.0

Results for c1nc(N2CCCC2)c2nc3n(c2n1)CCCCC3 ?
Mtb MbtI inh: -12.3; PV pol inh: 103.0; MenB inh: -7.0; PV pol inh intensity: 108.0

Results for C(=N\n1cnnc1)/c1cccc2ccccc12 ?
Mtb MbtI inh: 34.0; PV pol inh: 103.0; MenB inh: -12.4; PV pol inh intensity: 98.0

Results for CCOC(=O)C(C#N)C1(c2c(C)[nH]n(-c3ccccc3)c2=O)C(=O)N(c2ccccc2)N=C1C (configuration not stated) ?
Mtb MbtI inh: -10.6; PV pol inh: 108.0; MenB inh: 13.4; PV pol inh intensity: 113.0

What do the screens show for `O=C(COCc1cc(-c2ccc3c(c2)OCO3)on1)NC1CCCc2ccccc21` (configuration not stated)?
Mtb MbtI inh: 1.2; PV pol inh: 102.0; MenB inh: -1.7; PV pol inh intensity: 103.0

How did CCc1ccc(/C=C2\CN(C)C/C(=C\c3ccc(CC)cc3)C2O)cc1 do in these assays?
PV pol inh: 116.0; MenB inh: -31.0; PV pol inh intensity: 143.0

What do the screens show for `NC(=O)c1c(NC(=O)c2ccc3c(c2)S(=O)(=O)N=C2CCCCCN23)sc2c1CCC2`?
Mtb MbtI inh: 2.0; PV pol inh: 107.0; MenB inh: -47.4; PV pol inh intensity: 113.0

Gathered by group, the entries above containing a Cl atom
How did O=C(Nc1cccc(Cl)c1)C1=CC(=O)N2CCN=C2S1 do in these assays?
Mtb MbtI inh: 37.5; PV pol inh: 100.0; MenB inh: 13.2; PV pol inh intensity: 102.0

How did COc1ccc2c(CC(=O)OCc3cc(Cl)c4c(c3)OCCCO4)coc2c1 do in these assays?
Mtb MbtI inh: 17.1; PV pol inh: 99.0; MenB inh: -17.9; PV pol inh intensity: 113.0

Next part.
What do the screens show for `Cc1ccc(/C=C(\NC(=O)c2ccc(C)cc2)C(=O)NCc2ccncc2)cc1`?
Mtb MbtI inh: 5.3; PV pol inh: 103.0; PV pol inh intensity: 107.0

What do the screens show for `CCn1cc(C(=O)O)c(=O)c2cc(S(=O)(=O)N(C)C3CCCCC3)ccc21`?
Mtb MbtI inh: 3.7; PV pol inh: 98.0; MenB inh: -6.9; PV pol inh intensity: 94.0

What do the screens show for `CCOc1ccccc1C(=O)Nc1ccc(Cl)cc1`?
Mtb MbtI inh: 1.0; PV pol inh: 103.0; MenB inh: -8.1; PV pol inh intensity: 105.0

How did COc1ccc(Br)cc1S(=O)(=O)NCc1ccccn1 do in these assays?
PV pol inh: 105.0; MenB inh: -12.2; PV pol inh intensity: 112.0

How did CCS(=O)(=O)N1CCCC(C(=O)N2CCC3(CC2)OCCO3)C1 (configuration not stated) do in these assays?
Mtb MbtI inh: 5.8; PV pol inh: 102.0; MenB inh: -16.3; PV pol inh intensity: 97.0

What do the screens show for `O=C(CCS(=O)(=O)c1cccs1)Nc1ccc(C(=O)NCc2cccs2)cc1`?
Mtb MbtI inh: -2.1; PV pol inh: 103.0; MenB inh: -15.9; PV pol inh intensity: 109.0

What do the screens show for `COc1ccc(C2CC(c3cccs3)Nc3nc4ccccc4n32)cc1` (configuration not stated)?
Mtb MbtI inh: -13.5; PV pol inh: 102.0; MenB inh: -14.7; PV pol inh intensity: 93.0

What do the screens show for `CCOCCCNc1ncnc2c1cnn2-c1ccc(F)cc1`?
Mtb MbtI inh: 140.1; PV pol inh: 101.0; MenB inh: -20.9; PV pol inh intensity: 99.0

What do the screens show for `CC1=C2[C@H]3OC(=O)[C@@H](C)[C@@H]3CC[C@@]2(C)C=CC1=O`?
Mtb MbtI inh: 0.9; PV pol inh: 100.0; MenB inh: 3.9; PV pol inh intensity: 99.0

Results for CCN(CC)CCN(C)Cc1cc(OC)c(OC)cc1OC ?
Mtb MbtI inh: -11.4; PV pol inh: 101.0; MenB inh: -13.4; PV pol inh intensity: 103.0

What do the screens show for `CC1(C)CCC(C)(C)c2cc(C(=O)Nc3ccc(C(=O)O)cc3)ccc21`?
Mtb MbtI inh: -17.8; PV pol inh: 101.0&103.0; MenB inh: 0.5; PV pol inh intensity: 101.0&101.0

What do the screens show for `O=c1[nH]nc2c3c(cccc13)-c1ccccc1-2`?
Mtb MbtI inh: 1.2; PV pol inh: 99.0; MenB inh: 57.9*; PV pol inh intensity: 100.0

How did CCc1ccccc1NC(=O)C1CCCN(c2ncnc3c2nc2n3CCCCC2)C1 (configuration not stated) do in these assays?
Mtb MbtI inh: -4.8; PV pol inh: 102.0; MenB inh: -36.6; PV pol inh intensity: 97.0

Results for CCC(C)NC(=O)c1ccc(N(CC)CC)cc1 (configuration not stated) ?
PV pol inh: 101.0; MenB inh: -0.6; PV pol inh intensity: 98.0

How did Nc1ccc(S(=O)(=O)C(F)(F)F)cc1N do in these assays?
Mtb MbtI inh: 8.0; PV pol inh: 103.0; MenB inh: 2.4; PV pol inh intensity: 109.0

Results for O=C(CN1CCCCC1)N=Nc1c(O)[nH]c2ccccc12 ?
Mtb MbtI inh: 3.3; PV pol inh: 104.0; MenB inh: -62.5; PV pol inh intensity: 99.0

Results for COc1ccc(OC)c(C(=O)c2coc3c2cc(O)c2ccccc23)c1 ?
Mtb MbtI inh: 19.0; PV pol inh: 99.0; MenB inh: -17.8; PV pol inh intensity: 99.0

What do the screens show for `CCOc1ccc(NC2SC(=O)N(CCC(=O)O)C2=O)cc1` (configuration not stated)?
Mtb MbtI inh: -3.7; PV pol inh: 100.0; MenB inh: -0.5; PV pol inh intensity: 102.0

What do the screens show for `CCSc1nc(-c2ccc(OC)cc2)n(-c2nc3ccccc3s2)n1`?
Mtb MbtI inh: 5.2; PV pol inh: 101.0; MenB inh: 3.4; PV pol inh intensity: 102.0

Results for Cc1c(CN2CCC(N3CCCCC3)CC2)sc2ccccc12 ?
Mtb MbtI inh: -9.2; PV pol inh: 101.0; MenB inh: -32.6; PV pol inh intensity: 104.0

Results for COc1ccc(N2CC(C(N)=O)CC2=O)cc1 (configuration not stated) ?
PV pol inh: 102.0; MenB inh: -19.2; PV pol inh intensity: 100.0

What do the screens show for `CN(C)c1ccc(/C=C2\Cc3ccccc3C2=O)cc1`?
Mtb MbtI inh: 2.2; PV pol inh: 76.0; MenB inh: -5.1; PV pol inh intensity: 184.0

Results for COC(=O)C1=C(C)N(C2CCCCC2)C(=O)/C1=C\c1cccs1 ?
Mtb MbtI inh: -6.1; PV pol inh: 104.0; MenB inh: -21.9; PV pol inh intensity: 102.0

What do the screens show for `O=C(NCCCn1ccnc1)c1ccccc1Cl`?
Mtb MbtI inh: -1.0; PV pol inh: 100.0; MenB inh: -14.0; PV pol inh intensity: 98.0

What do the screens show for `Cc1cc(C)c(NC(=O)COC(=O)C2CCC(=O)N2)c(C)c1` (configuration not stated)?
Mtb MbtI inh: -4.8; PV pol inh: 103.0; PV pol inh intensity: 97.0

Results for CCOc1ccc(CO[C@@H]2O[C@H](CO)[C@@H](O)[C@H](O)[C@H]2NC(C)=O)cc1OC ?
Mtb MbtI inh: -2.8; PV pol inh: 103.0; MenB inh: -10.4; PV pol inh intensity: 103.0

How did COCCCN=C1NC(=O)C(CC(=O)Nc2ccc(Cl)cc2)S1 (configuration not stated) do in these assays?
Mtb MbtI inh: -0.3; PV pol inh: 100.0; MenB inh: -10.4; PV pol inh intensity: 98.0

What do the screens show for `CCCNC(=O)c1ccccc1Br`?
PV pol inh: 103.0; MenB inh: -21.4; PV pol inh intensity: 109.0

How did O=C(/C=C/c1ccc2c(c1)OCO2)N1CCCCC1 do in these assays?
Mtb MbtI inh: 70.5; PV pol inh: 100.0; MenB inh: -17.6; PV pol inh intensity: 100.0

Results for O=C(O)CCC(=O)OCc1ccccc1 ?
PV pol inh: 104.0; MenB inh: 8.2; PV pol inh intensity: 97.0

How did CCN(CC)S(=O)(=O)c1ccc(NC(=O)Cc2ccc3c(c2)OCCO3)cc1 do in these assays?
Mtb MbtI inh: 2.8; PV pol inh: 103.0; MenB inh: -15.3; PV pol inh intensity: 107.0

What do the screens show for `O=Nc1c(O)[nH]c2cc3c(cc12)OCCO3`?
Mtb MbtI inh: 10.6; PV pol inh: 86.0*; MenB inh: -11.9; PV pol inh intensity: 82.0*

How did Cc1ccsc1/C=N/N1CCOCC1 do in these assays?
Mtb MbtI inh: 7.5; PV pol inh: 100.0; MenB inh: 3.2; PV pol inh intensity: 99.0

Results for COc1cccc(OCC(=O)NCC2CCCO2)c1 (configuration not stated) ?
Mtb MbtI inh: -5.6; PV pol inh: 102.0; PV pol inh intensity: 102.0

How did CC1N(C)c2ccc(C=C(C#N)C#N)cc2C1(C)C (configuration not stated) do in these assays?
Mtb MbtI inh: -2.2; PV pol inh: 44.0; MenB inh: -99.6; PV pol inh intensity: 242.0

Results for Cn1c(=O)cc(SCC(=O)N2CCN(c3cccc(Cl)c3)CC2)c2ccccc21 ?
Mtb MbtI inh: -9.6; PV pol inh: 102.0; MenB inh: -18.1; PV pol inh intensity: 100.0

How did N#CCOC(=O)c1cnc(Cl)c(Cl)c1 do in these assays?
Mtb MbtI inh: -7.4; PV pol inh: 104.0; MenB inh: -11.6; PV pol inh intensity: 108.0

What do the screens show for `O=C(Cc1coc2cc(O)ccc12)OCc1ccccc1C(F)(F)F`?
Mtb MbtI inh: -7.6; PV pol inh: 100.0; MenB inh: -16.9; PV pol inh intensity: 96.0

What do the screens show for `C=CCC(O)(c1ccc(O)cc1)C(CN1CCCCC1)c1ccccc1` (configuration not stated)?
Mtb MbtI inh: -8.4; PV pol inh: 101.0; MenB inh: 7.7; PV pol inh intensity: 100.0

Results for CCOC(=O)C1CCN(Cc2nc3sc4c(c3c(=O)[nH]2)CCCC4)CC1 ?
Mtb MbtI inh: -7.5; PV pol inh: 108.0; MenB inh: -1.0; PV pol inh intensity: 107.0

Some of these compounds in order of number of heavy atoms, ascending:
Results for COc1ccc(N2CC(C(N)=O)CC2=O)cc1 (configuration not stated) ?
PV pol inh: 102.0; MenB inh: -19.2; PV pol inh intensity: 100.0

What do the screens show for `CCSc1nc(-c2ccc(OC)cc2)n(-c2nc3ccccc3s2)n1`?
Mtb MbtI inh: 5.2; PV pol inh: 101.0; MenB inh: 3.4; PV pol inh intensity: 102.0

What do the screens show for `C=CCC(O)(c1ccc(O)cc1)C(CN1CCCCC1)c1ccccc1` (configuration not stated)?
Mtb MbtI inh: -8.4; PV pol inh: 101.0; MenB inh: 7.7; PV pol inh intensity: 100.0

Results for CCOc1ccc(CO[C@@H]2O[C@H](CO)[C@@H](O)[C@H](O)[C@H]2NC(C)=O)cc1OC ?
Mtb MbtI inh: -2.8; PV pol inh: 103.0; MenB inh: -10.4; PV pol inh intensity: 103.0

Source: PubChem BioAssay (ICCB-Longwood Screening Facility, Harvard Medical School)
